StopGo reporter – FMDV 2A StopGo reporter, luciferase signal | human cells with a luciferase reporter of 2A StopGo recoding; control for the full effect not named in the record | Potency, µM (highest dose often 57.9 µM), for inactives: at the highest dose signal change, negative = less light | hit rate 1.2% among 410,000 | AID 1159524; active = well fitted falling curve with a large enough effect; inconclusive = small, poorly fitted or top-dose-only effect; inactive = no such curve, though single readings can be large or run the other way; tested in HEK293T cells; further: nearly all actives have a fitted effect of over 45% in size; luciferase light after 4 h
MARV entry inh – inhibitors of Marburg virus binding or cell entry; Marburg virus pseudotyped entry inhibition, cell reporter; control for the full effect not named in the record; about a third of the inactives were read at about 46 µM; hit rate 1.8% among 300,000; Potency, µM (titrated, usually from 37.8 µM), without a hit: at the highest dose activity change, negative = inhibition, usual class: inhibitors; active = well fitted inhibition curve with a large enough effect; inconclusive = small, poorly fitted or top-dose-only effect, or effect the other way; inactive = flat fitted curve, though single readings scatter; tested in HEK293 cells; about a fifth of its hits are not listed in these tables; further: luciferase read-out
LASV entry inh – Lassa virus entry inhibition | Lassa virus pseudotype entry inhibition, cell reporter; control for the full effect not named in the record | Potency, µM (highest dose often 37.9 µM), without a hit: at the top dose activity change, negative = inhibition, actives largely listed as inhibitors | hit rate 1.2% among 300,000; active means well fitted inhibition curve with a large enough effect; inconclusive means small, poorly fitted or top-dose-only effect, or effect the other way; inactive means flat fitted curve, though single readings scatter; tested in HEK293 cells; further: nearly all actives have a fitted effect of over 50% in size; luciferase read-out
RE007 growth inh – less growth of the S. pombe RE007 Vpr strain; S. pombe RE007 Vpr strain, BacTiter-Glo ATP luminescence, 24 h; control for the full effect not named in the record; Potency, µM (doses to about 92.2 µM), without a hit: at the highest dose activity change, negative = less growth; hit rate 0.21% among 360,000; active = well fitted falling curve with a large enough effect; inconclusive = small, poorly fitted or top-dose-only effect; inactive = no such curve, though single readings can be large or run the other way;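 further: nearly all actives have a fitted effect of over 50% in size; the assay follows cell death caused by Vpr and the record does not say whether a fall means rescue or toxicity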
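Fission yeast strain RE007, carrying one chromosomally integrated HIV-1 vpr copy, was seeded at OD 0.01 in PMG+AL medium with 23 nL pinned compound. After 24 h at 30 °C and 99% humidity, viability was read by BacTiter-Glo luminescence.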
Numbers without * were called inactive; ? = inconclusive; . = no result given; & = joins results of further samples; [ ] = another dose, or the depositor's remark. On the % scale 0 is the no-effect control and ±100 the full control effect; potency means the concentration at half of the fitted maximal effect. Not all compounds are listed; rates above refer to the full screens.

#1 COc1ccc(NC(=O)C[C@H]2C(=O)N(CCc3ccccc3)C[C@@H]2C)cc1
#2 Cn1ccc2c(-c3ccc4c(c3)OCCO4)cc3c(c21)C1CCC3O1 (stereo not given)
#3 O=c1cc(CN2CCCCCCC2)c2c(ccc3ccccc32)o1
#4 COc1cccc(-c2cc3c(c4c2ccn4C)C2CCC3C2)c1 (stereo not given)
#5 C#CCOCCOCCOCCNc1nc(N2CCN(C(=O)Cn3cc(CCO)nn3)CC2)nc(N2CCN(C(=O)Cn3cc(CCCN=C(N)N)nn3)CC2)n1

Assay by compound | 1 | 2 | 3 | 4 | 5
StopGo reporter | 2% | 0% | 0% | -15% | -8%
RE007 growth inh | -26% | ? | -15% | -16% | -9%
MARV entry inh | . | . | . | . | -4%
LASV entry inh | 3%[46.1 µM] | ? | 8%[46.1 µM] | ? | .

#6 CCN(CC(=O)Nc1ccc(NC(C)=O)cc1)C(=O)c1cc([N+](=O)[O-])ccc1Sc1ccc(Cl)cc1
#7 COCOCCn1cc(CN2CCS(=O)(=O)N(Cc3ccc(-c4ccc(C)cc4)cc3)C(C)C2=O)nn1 (stereo not given)
#8 CC1C(=O)N(Cc2cn(Cc3ccco3)nn2)CCS(=O)(=O)N1Cc1ccc(-c2cccc(N(C)C)c2)cc1 (stereo not given)
#9 CCN1C(=O)N[C@@H](c2ccccc2)[C@H](C(=O)OC)[C@H]1C
#10 CC(C)CN(C(=O)Cn1c(C(F)(F)F)nc2ccccc21)c1c(N)n(Cc2ccccc2)c(=O)[nH]c1=O

Assay by compound | 6 | 7 | 8 | 9 | 10
StopGo reporter | -5% | -20% | -12% | 16% | -17%
RE007 growth inh | 10% | 3% | -7% | 6% | 2%
MARV entry inh | 2% | ? | ? | -12%&-12%&-12%[14.2 µM] | 4%
LASV entry inh | . | . | . | . | .

#11 CCCCn1c(N)c(N(CCOC)C(=O)c2cc(S(=O)(=O)N3CCOCC3)ccc2Cl)c(=O)[nH]c1=O
#12 Cc1ccc(CN2CC(N3CCN(CC4CC4)CC3)CS2(=O)=O)cc1 (stereo not given)
#13 O=S1(=O)C[C@@H](N2CCN(c3ccccn3)CC2)[C@H](COCc2ccccc2)N1
#14 Cn1ccc2c(N3CCCCC3)cc3c(c21)C1CCC3O1 (stereo not given)
#15 COc1ccc(-c2cc3c(c4c2ccn4C)C2CCC3C2)cc1OC (stereo not given)

Assay by compound | 11 | 12 | 13 | 14 | 15
StopGo reporter | -10% | -2% | -10% | -16% | -22%
RE007 growth inh | 2% | -2% | -5% | -18% | 13%
MARV entry inh | 0% | ? | ? | ? | ?
LASV entry inh | . | . | . | . | .

Part of the list above, showing only StopGo reporter.
item	canonical_smiles	StopGo reporter
11	CCCCn1c(N)c(N(CCOC)C(=O)c2cc(S(=O)(=O)N3CCOCC3)ccc2Cl)c(=O)[nH]c1=O	-10%
12	Cc1ccc(CN2CC(N3CCN(CC4CC4)CC3)CS2(=O)=O)cc1 (stereo not given)	-2%
13	O=S1(=O)C[C@@H](N2CCN(c3ccccn3)CC2)[C@H](COCc2ccccc2)N1	-10%
14	Cn1ccc2c(N3CCCCC3)cc3c(c21)C1CCC3O1 (stereo not given)	-16%
15	COc1ccc(-c2cc3c(c4c2ccn4C)C2CCC3C2)cc1OC (stereo not given)	-22%

Arranged by length of the SMILES (descending): 3 of the compounds above
#11 CCCCn1c(N)c(N(CCOC)C(=O)c2cc(S(=O)(=O)N3CCOCC3)ccc2Cl)c(=O)[nH]c1=O
#13 O=S1(=O)C[C@@H](N2CCN(c3ccccn3)CC2)[C@H](COCc2ccccc2)N1
#12 Cc1ccc(CN2CC(N3CCN(CC4CC4)CC3)CS2(=O)=O)cc1 (stereo not given)

Assay by compound | 11 | 13 | 12
StopGo reporter | -10% | -10% | -2%
RE007 growth inh | 2% | -5% | -2%
MARV entry inh | 0% | ? | ?
LASV entry inh | . | . | .

(list continues)
#16 CC1(c2ccccc2)NC(=O)N(CC(=O)NCCN2C(=O)S/C(=C\c3cccnc3)C2=O)C1=O (stereo not given)
#17 COc1cc2oc(=O)cc(CN3CCCCC3)c2cc1Cl
#18 CC(C)CC1C(=O)N(Cc2cn(Cc3ccco3)nn2)CCS(=O)(=O)N1Cc1ccc(-c2ccccc2)cc1 (stereo not given)
#19 COCOCCn1cc(CN2CCS(=O)(=O)N(Cc3ccc(-c4cccc(N(C)C)c4)cc3)C(C(C)C)C2=O)nn1 (stereo not given)
#20 CCCCCCN1CCN(C2CN(Cc3ccccc3)S(=O)(=O)C2)CC1 (stereo not given)

Assay by compound | 16 | 17 | 18 | 19 | 20
StopGo reporter | -24% | 4% | ? | -21% | -3%
RE007 growth inh | -2% | -3% | 11% | 4% | -2%
MARV entry inh | 5% | ? | ? | ? | ?
LASV entry inh | . | . | . | . | .

#21 Cc1ccc(-c2ccc(CN3C(C)C(=O)N(Cc4cn(CC5CCCCC5)nn4)CCS3(=O)=O)cc2)cc1 (stereo not given)
#22 Cc1ccc(NC(=O)c2ncn(CCCN[C@H](C)c3cccc4ccccc34)n2)cc1C
#23 COc1cc(C(=O)NC2CCN(C)CC2)ccc1Nc1ncc2c(n1)N(CCc1ccccc1)CCC(=O)N2C
#24 O=C1N[C@@H](Cc2ccccc2)C(=O)N2[C@@H]3N(S(=O)(=O)c4ccc(F)cc4)c4ccccc4[C@]3(Br)C[C@@H]12
#25 O=C(NCc1ccccc1)c1cccc(NC(=O)C2CCCC2)c1

Assay by compound | 21 | 22 | 23 | 24 | 25
StopGo reporter | ? | -19% | 0% | 5% | -4%
RE007 growth inh | ? | 3% | -14% | 7% | 7%
MARV entry inh | ? | 0% | 1% | -4% | ?
LASV entry inh | . | . | . | . | .

A few values from above.
Reading for compound 24 under RE007 growth inh: 7%
Reading for compound 1 under RE007 growth inh: -26%

Next results.
#26 COC(=O)C1=C(C(=O)OC)[C@@H]2N(Cc3ccccc3)c3ccccc3[C@@]23C[C@@H](C(=O)OC)N(C(=O)c2cc(C)oc2C)C3=N1
#27 CC(C)C[C@@H](CO)NS(=O)(=O)c1c(F)cccc1F
#28 Cn1ccc2c(-c3ccc4c(c3)OCCO4)cc3c(c21)C1CCC3C1 (stereo not given)
#29 CC(=O)n1cc([C@@H]2C=C(C(=O)N3CCN(C)CC3)O[C@H](OCc3ccc(CO)cc3)C2)c2ccccc21
#30 C[C@@H]1O[C@@H](O[C@H]2C[C@@H](O)[C@]3(CO)[C@@H]4C(CC[C@]3(O)C2)[C@@]2(O)CC[C@H](C3COC(=O)C3)[C@@]2(C)C[C@H]4O)[C@H](O)[C@H](O)[C@H]1O (stereo not given in full)

Assay by compound | 26 | 27 | 28 | 29 | 30
StopGo reporter | ? | -11% | -7% | -3% | ?
RE007 growth inh | -2% | 0% | -13% | 2% | -12%[18.4 µM]
MARV entry inh | ? | ? | ? | 2% | 0.82µM*
LASV entry inh | . | . | . | . | .

#31 O=S1(=O)C[C@H](N2CCCC2)[C@@H](COCc2ccccc2)N1
#32 O=S(=O)(c1ccc(Br)cc1F)N1CCC(O)CC1
#33 COC(=O)Cn1c(CN2CCN(c3ccccc3F)CC2)nc2c1c(=O)n(C)c(=O)n2C
#34 O=C(Cc1ccc(S(=O)(=O)N2CCOCC2)s1)N1CCN(S(=O)(=O)c2ccccc2[N+](=O)[O-])CC1
#35 O=S1(=O)CC(N2CCN(CCO)CC2)CN1Cc1ccccc1 (stereo not given)

Assay by compound | 31 | 32 | 33 | 34 | 35
StopGo reporter | 3% | -25% | ? | -28% | -14%
RE007 growth inh | 12% | -1% | 1% | 4% | -7%
MARV entry inh | ? | ? | 7% | -8% | ?
LASV entry inh | . | . | . | . | .

#36 Cn1ccc2c(N(c3ccccc3)C3CCCCC3)cc3c(c21)C1CCC3O1 (stereo not given)
#37 CC(C)CC1C(=O)N(Cc2cn(CCC3OCCCO3)nn2)CCS(=O)(=O)N1Cc1ccc(-c2ccc(Cl)c(Cl)c2)cc1 (stereo not given)
#38 CN(C)S(=O)(=O)c1ccc(N2CCCC2)c(C(=O)N2CCN(S(=O)(=O)c3ccc(F)c(F)c3)CC2)c1
#39 CCCCN1C[C@H](CSC)[C@@H](CC(=O)Nc2ccc(Br)cc2)C1=O
#40 COc1ccc2c(CN3CCCCC3)cc(=O)oc2c1

Assay by compound | 36 | 37 | 38 | 39 | 40
StopGo reporter | -28% | ? | -20% | 36%[activator] | 28%
RE007 growth inh | 5% | -6% | 4% | ? | 1%
MARV entry inh | ? | ? | 1% | ? | ?
LASV entry inh | . | . | . | . | .

#41 CN(C)CCN1CCN(C2CN(C3CCCC3)S(=O)(=O)C2)CC1 (stereo not given)
#42 CC1C(=O)N(Cc2cn(CC3CCCCC3)nn2)CCS(=O)(=O)N1Cc1ccc(-c2ccccc2)cc1 (stereo not given)
#43 COC(=O)C1=C(C)N(Cc2ccccc2)C(=O)N[C@H]1c1ccco1
#44 Cn1ccc2c(-c3ccc4[nH]ccc4c3)cc3c(c21)C1CCC3O1 (stereo not given)
#45 COc1ccc([C@H]2C[C@@H](O)[C@H](n3cc(COC(=O)c4ccccc4)nn3)CN2CC2CCCCC2)cc1

Assay by compound | 41 | 42 | 43 | 44 | 45
StopGo reporter | -16% | -5% | -4% | 10% | ?
RE007 growth inh | 8% | -21% | 0% | -11% | 10%
MARV entry inh | ? | ? | 13%&13%[14.2 µM] | ? | ?
LASV entry inh | . | . | . | . | .

#46 COCCN(CCOC)Cc1cc(=O)oc2cc(C)c(C)cc12
#47 CC(C)C1C(=O)N(Cc2cn(CCC3OCCCO3)nn2)CCS(=O)(=O)N1Cc1ccc(-c2ccc(F)nc2)cc1 (stereo not given)
#48 COCCN1C=C2C(=O)C(C)(OC(=O)CCC(=O)OC)C(=O)C(Br)=C2C=C1c1ccc(OC)cc1 (stereo not given)
#49 COc1ccc(C2=Nc3ccccc3C2(O)CCN2C(=O)c3ccccc3C2=O)cc1 (stereo not given)
#50 COCCN1C(=O)N[C@@H](c2ccccc2)[C@H](C(C)=O)[C@H]1C
#51 COC(=O)[C@@H]1[C@@H](C)N(Cc2ccccc2)C(=O)N[C@H]1c1ccccc1

Assay by compound | 46 | 47 | 48 | 49 | 50 | 51
StopGo reporter | -11% | -18% | 4% | 11% | -3% | 1%
RE007 growth inh | -13% | 12% | 6% | 7% | -4% | -4%
MARV entry inh | ? | ? | -4% | -1% | 11%&11%&11%[14.2 µM] | -5%&-5%[14.2 µM]
LASV entry inh | . | . | . | . | . | .
